Source: PubChem BioAssay
Six1-Eya2 inh: inhibitors of human Six1/Eya2 interaction; hit rate 0.56% among 360,000; AlphaScreen GST-Six1/His-Eya2 binding, biochemical; stronger effect = lower value; control for the full effect not named in the record; activity change, % (test concentration not listed); in the data active = activity change below about -65%; inconclusive = about -30% to -65%; inactive = above about -30%; note: % is set by controls: 0 for no effect and ±100 for the full control effect; compound concentration not given in the record
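Homogeneous AlphaScreen proximity assay pairing GST-Six1 with His-tagged Eya2 (added as 5X mix: 250 nM and 500 nM) in 50 mM Tris pH 8.0, 300 mM NaCl, 1 mM TCEP. Glutathione donor and nickel acceptor beads; 1 h, 37 °C, dark.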
D2 potentiator: potentiates the human D2 dopamine receptor allosterically; hit rate 0.23% among 360,000; P14416; DiscoveRx D2 beta-arrestin cells, luminescence, 90 min; 100% = 57 uM dopamine signal; potentiation, % (test concentration not listed); active = potentiation of 50% or more; inconclusive = 30% to 50%; inactive = 30% or less;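 note: compound concentration not given in the record; tested on top of an EC20 dose of dopamine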
Target sequence (P14416 whole entry, looked up): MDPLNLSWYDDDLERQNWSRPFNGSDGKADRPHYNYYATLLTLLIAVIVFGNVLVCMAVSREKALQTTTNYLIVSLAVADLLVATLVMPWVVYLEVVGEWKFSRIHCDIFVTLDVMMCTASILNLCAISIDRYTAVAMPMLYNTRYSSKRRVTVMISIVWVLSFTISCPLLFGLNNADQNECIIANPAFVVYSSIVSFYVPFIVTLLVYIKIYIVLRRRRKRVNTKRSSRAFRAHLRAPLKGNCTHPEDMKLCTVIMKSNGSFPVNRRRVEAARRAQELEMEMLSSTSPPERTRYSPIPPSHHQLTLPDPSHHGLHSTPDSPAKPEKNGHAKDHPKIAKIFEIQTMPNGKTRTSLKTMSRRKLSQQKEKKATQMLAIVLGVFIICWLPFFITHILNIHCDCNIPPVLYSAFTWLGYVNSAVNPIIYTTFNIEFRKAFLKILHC
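PathHunter beta-arrestin assay in DiscoveRx D2 cells. Compounds were added with an EC20 of dopamine (50 nM final) for 90 min at 37 deg C. Luminescence was read 1 h after detection reagent, with 57 uM dopamine as the EC100 control.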
gsp agonist: gsp mutant agonism; AID 624287; Potency, µM (highest dose often 76.9 µM), inactives show at the top dose activation (cAMP increase), usual class: activators; gsp mutant cells, cAMP HTRF, 30 min; control for the full effect not named in the record; hit rate 0.13% among 340,000; active = well fitted activation curve with a large enough effect; inconclusive = small, poorly fitted or top-dose-only effect, or another doubt; inactive = no such curve, though single readings can be large or run the other way; cell line not stated here;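 note: phosphodiesterase inhibitor Ro 20-1724 added with compounds to block cAMP breakdown; potency is the fitted concentration of half-maximal effect; nearly all actives have a fitted effect of over 60% in size; about a fifth of the inactives were tested at one dose only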
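Cells in DMEM/10% FBS with G418 were pretreated with compounds in DMSO plus […] (300 uM stock) for 30 min at 37C. cAMP was measured by HTRF (cAMP-d2 plus anti-cAMP antibody-K) after 30 min at room temperature.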
gsp antag: gsp mutant antagonism; gsp-mutant cells, cAMP HTRF, 30 min; control for the full effect not named in the record; Potency, µM (highest dose often 76.9 µM), for inactives: top-dose activity change, negative = inhibition, hits mostly inhibitors; hit rate 0.4% among 340,000; active = falling curve of any shape with a large fitted effect; inconclusive = falling curve, mostly with a smaller effect; inactive = flat or rising curve; cell line not stated here;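 note: intracellular cAMP measured with PDE inhibitor Ro 20-1724 present during compound exposure; potency is the fitted concentration of half-maximal effect; % is set by controls: 0 for no effect and ±100 for the full control effect; nearly all actives have a fitted effect of over 65% in size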
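Cells, 2000/well, grown 16–24 h in DMEM 10% FBS with 0.5 mg/ml G418, then compounds plus […] (300 uM addition stock), 30 min at 37C. cAMP read by HTRF (cAMP-d2 and anti-cAMP antibody-K in lysis buffer) after 30 min RT.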
D2 agonist: agonists of human D2 dopamine receptor (beta-arrestin) | hit rate 0.084% among 360,000 | AID 624465 | P14416 | activation, % (concentration not given with the values) | DiscoveRx PathHunter D2 beta-arrestin, luminescence, 90 min; 100% = 57 uM dopamine signal; in the data active = activation above about 40%; inconclusive = about 15% to 40%; inactive = below about 15%; note: compound concentration not given in the record; the text of the record calls up to 30% inactive
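Agonist mode: compounds alone added to overnight-plated D2 PathHunter cells for 90 min at 37 C, with 57 uM final dopamine (EC100) defining full response. Beta-arrestin recruitment detected by chemiluminescent reagent, read after 1 h at ambient temperature.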
CtBP-E1A inh: inhibitors of CtBP/E1A interaction | hit rate 0.49% among 340,000 | activity change, % (test concentration not listed) | AID 651724 | AlphaScreen GST-E1A/His-CtBP binding, 1536-well; stronger effect = lower value; control for the full effect not named in the record; in the data active means activity change below about -65%; inconclusive means about -30% to -65%; inactive means above about -30%; note: % is set by controls: 0 for no effect and ±100 for the full control effect; compound concentration not given in the record
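AlphaScreen with 125 nM GST-E1A and 125 nM His-CtBP (5X stocks) in Tris pH 8.0, 300 mM NaCl, BSA, Tween 20, TCEP. Compounds preincubated 2 h at 37 deg C, then glutathione donor/nickel acceptor beads added for 1 h at 37 deg C in dark.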
* hit, by the source's call; ? = inconclusive; . = not tested or not shown; [ ] = remark or other dose.

The line under a structure holds: Six1-Eya2 inh, D2 potentiator, gsp agonist, gsp antag, D2 agonist, CtBP-E1A inh
- CNC(=O)NC(=S)NC(=O)c1ccccc1Cl
    8, -7, 0%[15.4 µM], 10%, -2.6, 4
- Cc1n[nH]c(C)c1CCC(=O)N/N=C/C=C/c1ccccc1
    -3, -6, -1%, -7%, -3.3, .
- CC(C)[C@H](NS(=O)(=O)c1ccccc1)C(=O)OCC(=O)NC1CCCCC1
    -7, -7, ?, 10%, 4.3, .
- COc1ccc(NC(=O)COC(=O)c2ccc3c(c2)OCCO3)cc1OC
    2, -1, 0%, -4%, 0.9, .
- O=C(NCCc1ccccn1)C(F)(F)C(F)(F)C(F)(F)C(F)(F)C(F)(F)C(F)F
    12, -6, -15%[15.4 µM], 1%, -6.8, -4
- O=C(Nc1ccc(OCc2ccccc2)cc1)c1ccccc1
    2, -12, 0%[15.4 µM], 19%, -2.5, 0
- Cc1ccc(CNC(=O)CCC2CCCN(Cc3cccc4cccnc34)C2)o1 (configuration not stated)
    -7, -13, -9%[15.4 µM], -1%, -3.3, -9
- Nc1nc(Nc2ccccc2)nc(N2CCOCC2)c1[N+](=O)[O-]
    4, -16, 15%, 11%, -0.1, -10
- Cc1ccc(N2CCN(c3ccc([N+](=O)[O-])cn3)CC2)c(C)c1
    -5, -14, 15%, -3%, -2.9, .
- CC1CCN(Cc2c(C(=O)N3CCc4ccccc4C3)nc3ccc(Cl)cn23)CC1
    -8, -25, 14%, -5%, -8.1, -8
- Fc1ccc(CNC(=S)NCc2cccc(Cl)c2)cc1
    -6, -15, ?, -12%, -2.4, ?
- CN(C)S(=O)(=O)NCC1CCCN(Cc2cc3ccccc3s2)C1 (configuration not stated)
    2, -10, -16%, 7%, 0.9, -2
- CCOC(=O)c1nc2sc3c(c2c(=O)[nH]1)CCCC3
    0, -4, -9%, 0%, -3.8, 2
- CCN1C(=O)CSc2ccc(C(=O)NCc3ccccc3OC)cc21
    -2, -4, 17%, -6%, -0.6, -1
- CCc1nc2c(OCc3cc(Cl)cc(Cl)c3)cccn2c1N(C)C(=O)c1ccccc1F
    -7, -17, ., ., -1.9, -15
- Cc1cc(NC(=O)CN(C)S(=O)(=O)c2ccc(-c3ccc(=O)[nH]n3)s2)ccc1Br
    -24, -36, 18%, 10%, -2.9, 0
- CC(C)(C)NC(=O)CC1C[C@H](C(=O)N2CCOCC2)[C@@]2(C)c3[nH]c4ccccc4c3CCN2C1=O (some centres not stated)
    8, ., ., 11%, -0.6, 2
- O=C(CN1CCN(Cc2ccccc2Cl)CC1)N=Nc1c(O)[nH]c2ccccc12
    -10, -11, 1%, -22%, -0.4, -15
- O=C(N/N=C\c1cccc(F)c1)c1ccc(Cn2cc(Br)c([N+](=O)[O-])n2)o1
    6, -7, 2%[15.4 µM], ?, -1.7, -4
- Cc1cccc(C(=O)N/N=C/c2ccncc2)c1
    10, -5, 0%, 1%, -0.2, -1
- Cc1ccc2c(c1)C=CC(C#N)N2C(=O)c1ccccc1 (configuration not stated)
    5, -9, 5%[15.4 µM], -5%, -3.3, -9
- CCOc1ccc(N2C(=O)Nc3ccccc3C2(O)C(=O)NCc2ccc3c(c2)OCO3)cc1 (configuration not stated)
    3, 1, 9%, -1%, 1.5, -1
- CCO[C@@H]1OC(C(=O)N2CCN(C)CC2)=C[C@H](C2CCCCC2)[C@H]1CCCO
    12, -19, ., 2%, -1.8, 7
- CC(C)C(C)NC(=O)COc1ccc(S(=O)(=O)N2CCOCC2)cc1Cl (configuration not stated)
    4, -4, -2%, 3%, -5.7, -5
- O=C(OCC(=O)c1ccc[nH]1)c1ccc(Cl)nc1
    -7, -5, -3%[15.4 µM], 8%, -2.3, 1
- COc1ccccc1Cn1c(=S)[nH]c2ccc(Br)cc2c1=O
    11, 0, 27%[15.4 µM], 2%, 0.3, 7
- O=C(CN1C(=O)C2CC=CCC2C1=O)NCC(=O)Nc1ccc(F)c(F)c1F (configuration not stated)
    2, 5, -9%, 5%, 1.4, -1
- COc1ccccc1NS(=O)(=O)c1cc(NC(=O)c2sccc2C)ccc1N1CCCC1
    -24, -13, -2%[15.4 µM], -17%, 1.5, 3
- CCOc1ccccc1N(CC(=O)N1CCOCC1)S(=O)(=O)c1ccccc1
    14, -6, -39%, -16%, -3.4, 9
- COCCNC(=O)c1onc(CSc2nc3ccccc3[nH]2)c1C(=O)NCCOC
    12, -3, 3%, -4%, -2.3, 7
- CC(C)P(=O)(Cc1cccc(C#N)c1)C(C)C
    5, -16, -6%, 5%, -0.5, 7
- O=C(CSc1nnc(-c2cccnc2)n1-c1ccc(SC(F)F)cc1)N1CCCc2ccccc21
    3, -9, 2%, -1%, -6.6, .
- CC(Sc1nnnn1-c1ccc(O)cc1)C(=O)NNC(=O)c1ccc(F)cc1 (configuration not stated)
    0, -9, -39%, 4%, 0.6, -1
- COc1ccccc1NS(=O)(=O)c1ccc(O)cc1
    -2, -7, -12%, 6%, -2.1, 7
- NNC(=O)Cn1c(-c2nonc2N)nc2ccccc21
    1, -4, -3%, -3%, -3.5, .
- O=C(OCc1nnc(-c2ccccc2)o1)C1=COCCO1
    -11, 2, -4%, 11%, -3.2, -2
- C=CCOc1ccccc1CN1CCC(n2nccc2NC(=O)C2CCOC2)CC1 (configuration not stated)
    1, -23, -44%[inhibitor], 14%, -2.3, -5
- Cc1ccc(NC(=O)C2CC(O)CN2C(=O)OCc2ccccc2)c(C)c1 (configuration not stated)
    0, -6, ?, 9%, -2.2, -1
- Cc1cc2ncn(CC(C)C)c2cc1C
    6, -5, 18%, -15%, -1.8, 2
- Cc1ccc2c(c1)N(CC(=O)Nc1ncccc1C)C(=O)C(C(C)C)O2 (configuration not stated)
    3, -6, -21%, -5%, -3.9, 4
- CCn1c(SCC(=O)NCCOC)nc2sc3c(c2c1=O)CCCC3
    -1, -3, -20%, -4%, -1.1, -2
- COc1ccc(-c2nc3ccccc3c(=O)n2CCOc2cc(C)ccc2C)cc1
    -1, -6, -43%[inhibitor], -6%, -5.3, .
- CCOP(=O)(OCC)C(Nc1cccc([N+](=O)[O-])c1)c1ccccc1 (configuration not stated)
    -14, -6, -3%[15.4 µM], -1%, -7.2, -1
- COc1ccc(NC(=O)c2ccc3ncsc3c2)c2ccccc12
    -2, -12, 17%, -8%, -3.7, -12
- Cc1ccc(C)c(NC(=O)C2COc3ccccc3O2)c1 (configuration not stated)
    -1, 4, -12%, 5%, 0.1, .
- Cc1ccc(CNC(=O)C2CC3Cn4c(nc5cc6ccccc6cc54)C3N2C)o1 (configuration not stated)
    -4, -2, ., -10%, -1.2, -4
- CCCN(CCC)C(=O)COc1cc(=O)n(CC)c2ccccc12
    -5, 1, -18%, -8%, -0.9, 4
- COC(=O)[C@H](Cc1ccccc1)NC(=O)[C@@H](N)CC(=O)O
    5, -3, ., 7%, -4.3, 2
- CC[C@@H](C(=O)[C@@H](C)[C@@H](O)[C@H](C)[C@@H]1O[C@@H]([C@@H](CC)C(=O)O)CC[C@@H]1C)[C@H]1O[C@]2(C=C[C@@H](O)[C@]3(CC[C@@](C)([C@H]4CC[C@](O)(CC)[C@H](C)O4)O3)O2)[C@H](C)C[C@@H]1C
    5, 64*, ., -22%, 13, 0
- COc1cccc(/C=C/C(=O)OCC(=O)NC(=O)NC2CCCCC2)c1
    1, -21, -12%, 1%, -3.5, -15
- c1ccc(-c2cccs2)nc1
    3, -7, 5%[15.4 µM], 2%, -4.6, 7
- CC(=O)c1ccc(OC2(C)CCN(Cc3ccc4c(c3)OCCO4)C2)cc1 (configuration not stated)
    -10, -17, ., ., -5.2, -1
- Cc1noc(C)c1S(=O)(=O)N1CCN(c2ccccc2Cl)CC1
    -4, -22, ?, 5%, -6.1, 9
- CCOc1ccc(-c2csc3nc[nH]c(=O)c23)cc1
    -3, 0, -11%, -12%, -1.6, -4
- COc1cccc(CN(C)CC(=O)Nc2cccc(S(=O)(=O)N(C)c3ccccc3)c2)c1OC
    -14, -11, 2%, ?, 4.7, 2

In the list so far, these have four or more nitrogen atoms.
The line under a structure holds: Six1-Eya2 inh, D2 potentiator, gsp agonist, gsp antag, D2 agonist, CtBP-E1A inh
- Cc1n[nH]c(C)c1CCC(=O)N/N=C/C=C/c1ccccc1
    -3, -6, -1%, -7%, -3.3, .
- Nc1nc(Nc2ccccc2)nc(N2CCOCC2)c1[N+](=O)[O-]
    4, -16, 15%, 11%, -0.1, -10
- Cc1ccc(N2CCN(c3ccc([N+](=O)[O-])cn3)CC2)c(C)c1
    -5, -14, 15%, -3%, -2.9, .
- CC1CCN(Cc2c(C(=O)N3CCc4ccccc4C3)nc3ccc(Cl)cn23)CC1
    -8, -25, 14%, -5%, -8.1, -8
- Cc1cc(NC(=O)CN(C)S(=O)(=O)c2ccc(-c3ccc(=O)[nH]n3)s2)ccc1Br
    -24, -36, 18%, 10%, -2.9, 0
- CC(C)(C)NC(=O)CC1C[C@H](C(=O)N2CCOCC2)[C@@]2(C)c3[nH]c4ccccc4c3CCN2C1=O (some centres not stated)
    8, ., ., 11%, -0.6, 2
- O=C(CN1CCN(Cc2ccccc2Cl)CC1)N=Nc1c(O)[nH]c2ccccc12
    -10, -11, 1%, -22%, -0.4, -15
- O=C(N/N=C\c1cccc(F)c1)c1ccc(Cn2cc(Br)c([N+](=O)[O-])n2)o1
    6, -7, 2%[15.4 µM], ?, -1.7, -4
- COCCNC(=O)c1onc(CSc2nc3ccccc3[nH]2)c1C(=O)NCCOC
    12, -3, 3%, -4%, -2.3, 7
- O=C(CSc1nnc(-c2cccnc2)n1-c1ccc(SC(F)F)cc1)N1CCCc2ccccc21
    3, -9, 2%, -1%, -6.6, .
- CC(Sc1nnnn1-c1ccc(O)cc1)C(=O)NNC(=O)c1ccc(F)cc1 (configuration not stated)
    0, -9, -39%, 4%, 0.6, -1
- NNC(=O)Cn1c(-c2nonc2N)nc2ccccc21
    1, -4, -3%, -3%, -3.5, .
- C=CCOc1ccccc1CN1CCC(n2nccc2NC(=O)C2CCOC2)CC1 (configuration not stated)
    1, -23, -44%[inhibitor], 14%, -2.3, -5
- Cc1ccc(CNC(=O)C2CC3Cn4c(nc5cc6ccccc6cc54)C3N2C)o1 (configuration not stated)
    -4, -2, ., -10%, -1.2, -4
